# Compound activity (PubChem BioAssay)
# BJeLR lethal – MLPCN primary cell-based screen for lethality selective to Ras in HRASV12 cells | BJeLR (HRASV12) viability, CellTiter-Glo ATP luminescence, 48 h; reference of the scale not given here | inhibition, % (concentration not given with the values) | 0.17% of 300,000 active;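 active = replicate mean above 50%; inconclusive = above 50% but judged a plate artefact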;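 note: 50 nL library stock added to about 25 µL; numbers are from one replicate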
# Sa ugtP lethal – growth inhibition of ugtP-null S. aureus, primary screen, RN4220 ugtP deletion, OD600. growth inhibition, % (concentration not given with the values). 0.54% of 330,000 active. 16 h; some inactives read as strong as hits;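 active = z-score under -3 and OD600 up to 0.15 on both plates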;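 note: plate controls were untreated wells for no effect and antibiotic for full effect; wells of about 80 µL received 100 nL stock; the first replicate is given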
# PrP UTR inh – inhibition of PrP 5' UTR reporter expression. inhibition, % (no concentration beside the values). 0.35% of 340,000 active. cell-based PrP 5' UTR mRNA reporter, plate reader;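 active = every replicate at 50% or more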;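 note: 0 = median of the neutral control wells; tested in H4 reporter cells; numbers are from one replicate; inactives centre near -14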
# Mtb hypoxia inh – PubChem AID 1159583; M. tuberculosis hypoxia-regulated fluorescent reporter, fluorescence; fluorescence inhibition, % (no concentration beside the values); 0.1% of 300,000 active;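 active = 35 to 45% if threefold the growth effect, above 45% if 1.5-fold the growth effect; inactive = the rest, general growth blockers included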;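 note: wells of about 50 µL received 100 nL stock; 0% = vehicle wells and 100% = reference inhibitor wells; whole bacteria with a GFP reporter of the hypoxia response; strong numbers were not always called active; many hits fall short of the cut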
# Sa RN4220 lethal – growth inhibition of S. aureus RN4220, primary screen, OD600; 16 h; inhibition, % (no concentration beside the values); 0.33% of 330,000 active;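 active = z-score of -3 or lower and OD600 up to 0.18 on both plates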;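 note: plate controls were untreated cells for no effect and reference antibiotic for full effect; stock transfer was 100 nL into about 80 µL; one replicate is shown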
# Autofluor counter – compound fluorescence in toxin protease inhibitor counterscreen; compound autofluorescence counterscreen, microsphere flow cytometry; active compounds read high; fluorescence intensity (concentration not given with the values); 3.1% of 360,000 active;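 active = at least 3 SD above the mean of all compounds, about 16000 in these data; inconclusive = too few beads counted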;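 note: 100 nL of 1 mM stock went into each well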
# Mtb hypoxia inh growth – also measured in Mtb hypoxia inh; calls as there; growth inhibition, %; measured here: M. tuberculosis growth (absorbance);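 0% = vehicle and 100% = reference antibiotic; read after six days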
# Starred values were filed as active, the others as inactive; u = inconclusive; x = no result given.
SMILES,BJeLR lethal,Sa ugtP lethal,PrP UTR inh,Mtb hypoxia inh,Mtb hypoxia inh growth,Sa RN4220 lethal,Autofluor counter
COCc1cc(CN2CCN(Cc3ccsc3)C(CCO)C2)ccc1OC (centres undefined),-3,16,-22,11,5,2.8,2192
Cc1cccc(-n2nnc3c(=O)n(Cc4ccccn4)cnc32)c1,11,2,-4,12,6,1.0,3288
O=C(CN1CCN(c2ccc(F)cc2)CC1)Nc1ccccc1Br,0,-1,-15,10,-2,1.8,3780
O=C(CCCN1C(=O)c2cccc3cccc(c23)C1=O)N1CCN(c2ccccc2)CC1,11,6,-17,0,5,1.3,2019
O=C(Nc1ccccc1)Nc1ccc2ncoc2c1,-8,4,-36,1,-2,5.2,3797
CCc1ccc2nc(NC(=O)CCCc3cccs3)sc2c1,0,-1,-36,0,12,2.7,4773
Clc1ccc(OCCCN2CCCCC2)c(Br)c1,3,2,-56,3,0,0.7,2550
CCC(C)NC(=O)CO/N=C/c1ccccc1OC(F)F (centres undefined),8,x,-4,x,x,x,2031
COc1ccccc1NS(=O)(=O)c1cccc(C(=O)NN=Cc2c(CO)cnc(C)c2O)c1,x,6,x,4,-5,8.2,x
Cc1c(S(=O)(=O)N2CCN(C(c3ccccc3)c3ccccc3)CC2)c(=O)n(C)c(=O)n1C,6,-7,-3,3,14,-12,5195
CCCCC(=O)NNC(=S)NC(=O)c1ccc([N+](=O)[O-])cc1,3,2,7,0,16,3.0,4412
CCCOC(=O)CSC1=C(C#N)C(c2ccc3c(c2)OCO3)CC(=O)N1 (centres undefined),10,1,-27,x,x,2.0,3021
Cc1cccc(Nc2c(-c3ccc(O)cc3)nc3ncccn23)c1,2,x,-26,x,x,x,8921
CN(c1ccccc1)S(=O)(=O)c1ccc(NC(=S)NC(=O)C2CC2)cc1,-3,27,-39,0,14,6.5,2551
CC(NCc1ccc(F)cc1)C(=O)NC1CCCCC1 (centres undefined),-4,2,-14,12,16,3.8,4395
O=C(Oc1ccccc1)c1cccnc1Oc1ccccc1,1,10,-12,8,7,2.0,3901
CCOC(=O)c1sc2ncn(N=Cc3cccnc3)c(=O)c2c1C,x,-2,x,5,5,-12,x
COC(=O)C1=C(C(=O)OC)C2Nc3ccccc3[C@@]23CC(C(=O)OC)N(C(C)=O)C3=N1 (some centres undefined),x,6,x,7,6,-0.5,x
Cc1ccc(C(=O)C2C(=O)c3ccccc3C2=O)cc1,7,-10,-22,1,5,9.9,11030
O=C(Nc1ccccc1)c1cc(-n2cnnc2)ccc1Cl,-15,15,x,13,-9,-6.5,9299

# Reprinted from the results shown, two compounds:
SMILES,BJeLR lethal,Sa ugtP lethal,PrP UTR inh,Mtb hypoxia inh,Mtb hypoxia inh growth,Sa RN4220 lethal,Autofluor counter
Cc1ccc(C(=O)C2C(=O)c3ccccc3C2=O)cc1,7,-10,-22,1,5,9.9,11030
O=C(Nc1ccccc1)c1cc(-n2cnnc2)ccc1Cl,-15,15,x,13,-9,-6.5,9299

# Taken from above:
# Autofluor counter with O=C(Nc1ccccc1)c1cc(-n2cnnc2)ccc1Cl = 9299
# BJeLR lethal with Cc1c(S(=O)(=O)N2CCN(C(c3ccccc3)c3ccccc3)CC2)c(=O)n(C)c(=O)n1C = 6

# Entries of single compounds, quoted from the list. Values in the order: BJeLR lethal	Sa ugtP lethal	PrP UTR inh	Mtb hypoxia inh	Mtb hypoxia inh growth	Sa RN4220 lethal	Autofluor counter
# COCc1cc(CN2CCN(Cc3ccsc3)C(CCO)C2)ccc1OC (centres undefined) is entered as -3	16	-22	11	5	2.8	2192
# Cc1cccc(-n2nnc3c(=O)n(Cc4ccccn4)cnc32)c1 is entered as 11	2	-4	12	6	1.0	3288
# CCc1ccc2nc(NC(=O)CCCc3cccs3)sc2c1 is entered as 0	-1	-36	0	12	2.7	4773
# O=C(Nc1ccccc1)c1cc(-n2cnnc2)ccc1Cl is entered as -15	15	x	13	-9	-6.5	9299
# CCOC(=O)c1sc2ncn(N=Cc3cccnc3)c(=O)c2c1C is entered as x	-2	x	5	5	-12	x

# Other entries
SMILES,BJeLR lethal,Sa ugtP lethal,PrP UTR inh,Mtb hypoxia inh,Mtb hypoxia inh growth,Sa RN4220 lethal,Autofluor counter
COc1ccc(CCNS(=O)(=O)c2ccc3c(c2)NC(=O)CO3)cc1OC,-5,0,-1,-6,-4,-0.7,4160
CCCCc1c(O)nc(SCC(=O)N2CCOCC2)n(-c2ccc(OC)cc2)c1=O,-1,2,-25,1,8,-0.1,5802
Nc1nc2nn(-c3ccccc3)nc2c(=O)[nH]1,5,6,-27,-1,-5,2.8,4227
Cc1nnc2n1N=C(c1ccc(OC(F)F)cc1)C(C)S2 (centres undefined),-12,2,-19,-3,0,-1.8,5501
Cc1ccc(/C=C/c2nc3sc(C(=O)O)c(C)c3c(=O)[nH]2)cc1[N+](=O)[O-],-9,3,-14,3,1,-1.7,5626
CCCCN(C(=O)COC(=O)c1ccccc1)c1c(N)n(CCC)c(=O)[nH]c1=O,x,2,-5,9,4,1.9,3203
O=C(c1cnn(C(=O)c2ccccc2)c1)c1ccccc1O,-16,12,-20,-4,15,6.4,2460
Cc1noc(C)c1S(=O)(=O)Nc1ccc(C(=O)N2CCN(c3cccc(Cl)c3)CC2)cc1,1,0,-3,15,8,-5.3,12865
O=C(Nc1cccc2ccccc12)N1N=CCC1c1ccccc1 (centres undefined),-1,5,x,-2,6,3.9,6194
CC(=O)Nc1ccc(N(C(=O)c2cnccn2)C(C(=O)NC2CCCCC2)c2ccc(O)cc2)cc1 (centres undefined),-4,3,-28,0,0,0.6,8141
CC(C)CCN1CCN=C1Nc1ccccc1,-9,-6,-8,3,0,-10,3783
CCS(=O)(=O)Nc1cccc(C2=NN(S(=O)(=O)CC)C(c3cccs3)C2)c1 (centres undefined),-11,0,-6,-16,1,5.7,5677
Cc1ccc(Oc2ccccc2)c(NC=O)c1,-6,-7,-28,4,3,-4.2,13291
CCOc1cc(/C=N/NC(=O)c2cc(C)n(-c3ccc(F)cc3)c2C)ccc1O,7,x,-11,x,x,x,4061
Cc1nnsc1C(=O)NCc1c(F)cccc1Cl,-4,x,-10,x,x,x,3686
Clc1cccc(CONC=Nc2ncnc3sccc23)c1,x,-17,x,10,8,-7.0,x
CCN(CC(=O)NCc1ccc(Cl)cc1)C(=O)CNS(=O)(=O)c1ccc(NC(C)=O)cc1,0,2,-4,2,11,1.6,6354
COC(=O)c1cc2c(s1)-c1ccc(OC)cc1CC2,2,56,-89,9,7,5.6,4823
CCCCNC(=O)NNC(=O)C1CC1(c1ccccc1)c1ccccc1 (centres undefined),4,10,-11,6,6,-3.2,3970
CCOC(=O)c1c(C)[nH]c(C(=O)OCC(=O)NC(C)C)c1C,-6,-1,-42,5,11,2.4,10162
CCOC(=O)[C@@H]1[C@H]2COc3ccc(Br)cc3[C@@H]2N2C(=O)N(c3cccc(F)c3)C(=O)[C@@]12C,-1,x,-29,x,x,x,4016
O=c1cc(CO)occ1OCc1cccc(F)c1,5,3,-20,9,18,3.2,19821*
Cc1nn(CCc2n[nH]c(=S)n2-c2ccc(F)cc2)c(C)c1[N+](=O)[O-],2,2,-18,2,3,1.9,10625
COc1ccc(NC(=S)N2CCC(NC(=O)c3ccc(F)cc3)CC2)cc1,2,6,-12,-1,3,-0.5,5827
COc1ccc(C=NOCC(=O)N(Cc2ccccc2)c2ccccc2C(=O)O)cc1,x,8,x,3,-6,1.2,x
COc1cc(C2c3c(oc4c(C)cc(C)cc4c3=O)C(=O)N2Cc2cccnc2)ccc1O (centres undefined),-5,-4,-14,1,4,6.1,4236
Cc1ccsc1C(=O)N1CC(=O)Nc2ccccc21,-4,15,-6,1,1,22,2475
CCC(c1nnnn1Cc1ccccc1)N1CCN(C(=O)c2ccco2)CC1 (centres undefined),0,-1,-6,x,x,4.1,2722
NS(=O)(=O)c1ccc(NC(=O)Nc2ccc(S(N)(=O)=O)cc2)cc1,-7,-6,x,1,-1,-6.8,x
Cc1ccc(-c2cn(CCC(=O)O)c(-c3ccc(Cl)nc3)n2)cc1,x,8,-8,14,10,0.9,4105
O=C(CSc1ccccc1)NC1=NCCS1,-4,1,-12,-10,0,1.9,4296
O=C(CNC(=O)c1ccc(F)cc1)c1ccccc1,-1,2,-59,4,1,2.5,3836
COC(=O)NN=Cc1ccc(OC(=O)/C=C/c2ccco2)cc1,x,-11,x,-5,1,-0.4,x
CNc1nc2c(-c3ccc(Cl)cc3)nnn2c2ccccc12,9,-1,-29,2,4,-1.9,3246
Cc1ccc(S(=O)(=O)N2CCN=C2SC(C)c2ccccc2)cc1 (centres undefined),7,-7,-8,9,6,1.1,6197
CCOc1ccccc1OCC(=O)NNC(=O)Cn1cnc2c1c(=O)n(C)c(=O)n2C,2,-11,-15,-17,-5,0.3,4474
COc1ccc(CSCC(=O)NN=Cc2ccccc2OCc2ccccc2)cc1,x,3,x,7,3,1.5,x
CC(=O)OCC(=O)Nc1c(C)cc(C)cc1C,-5,13,-21,0,7,1.7,2034
O=C(CNS(=O)(=O)c1ccc(F)cc1)N1CCN(c2ccc(F)cc2)CC1,-1,9,-68,-4,-4,6.4,5975
COc1cc(CNC(C)(C)CO)cc(Br)c1OCc1ccc(Cl)cc1Cl,7,-24,-17,2,-4,-4.8,1978
COc1ccc(OCC(=O)O/N=C(\N)c2ccc(OC)cc2)cc1,-2,14,-16,13,8,5.8,4033
Cc1c(Cl)cccc1NC(=S)N1CCc2ccccc2C1,0,-3,-7,0,-1,2.2,1985
Cc1nc2cc(C(=O)O)ccc2n1C1CCCCC1,2,-5,-22,1,2,5.1,10944
O=C(O)CCCNC(=O)Nc1ccccc1,2,1,-17,4,12,5.4,3629
COc1ccccc1NC(=O)c1ccc(NC(=O)COC(=O)c2ccc(O)cc2)cc1,x,-9,-7,-6,6,-11,3832
CCC(C)NC(=O)CN1C(=O)CN=C(c2ccccc2)c2ccccc21 (centres undefined),-3,2,-16,10,0,9.8,2529
CCCOC(=O)C1C2C=C[C@]3(CN(CC4CCCO4)C(=O)C13)O2 (some centres undefined),x,3,x,9,7,8.6,x
CCc1nc2c(cnn2-c2ccc(F)cc2)c(=O)n1-c1ccc(N2CCC(C)CC2)cc1,9,15,-14,9,9,-1.2,13354
O=C(CC(=O)Nc1ccc(F)cc1F)Nc1ccc(F)cc1F,7,-6,-24,-10,-8,-2.6,3928
COC(=O)C1=C[C@@H](C(=O)OC)C2C3=C(C(=O)C24CCCCC4)[C@H](C)n2c(=O)n(-c4ccccc4)c(=O)n2[C@@H]3C1 (some centres undefined),-1,x,-7,x,x,x,3166
COc1ccc(OC)c(S(=O)(=O)N2CCC(NC(=O)c3ccccc3)CC2)c1,-2,9,-25,15,2,3.6,2962
COc1ccc(C(=O)N2CCN(c3cnn(-c4ccccc4)c(=O)c3Cl)CC2)cc1,13,5,-37,15,2,0.1,4454
CCOC(=O)C1CCCN(C(=O)COc2ccc(S(=O)(=O)N(CC)c3ccccc3)cc2)C1 (centres undefined),3,7,-10,-7,7,6.9,3285
COc1ccccc1CN1CC(C(=O)NCCc2ccc(Cl)cc2)CC1=O (centres undefined),3,-1,0,5,5,1.2,5537
COc1cccc(OCc2cc(C(=O)N3CCN(C)C(c4ccccc4)C3)no2)c1 (centres undefined),10,5,-27,13,0,0.0,4242
CCC=CC(=O)N1CC2(CC(c3cccc(NC(=O)CC)c3)=NO2)CC1C(N)=O (centres undefined),x,1,x,19,11,1.7,x
Cc1ccnc(NS(=O)(=O)c2ccc(Oc3ccccc3)cc2)c1,-1,10,-26,15,4,4.5,u
CC(Cc1cccnc1)NC(=O)c1cc(COc2ccc(F)cc2F)on1 (centres undefined),4,-2,1,-6,6,-0.4,5888
COc1ccc(NC(=O)COc2ccccc2C#N)c(S(=O)(=O)N2CCCCC2)c1,-16,10,-4,-6,-4,19,2245
O=C(Nc1ccccc1)C1=C(c2ccccc2)S(=O)(=O)CCS1(=O)=O,12,100*,-8,1,6,90*,4385

# Following part:
SMILES,BJeLR lethal,Sa ugtP lethal,PrP UTR inh,Mtb hypoxia inh,Mtb hypoxia inh growth,Sa RN4220 lethal,Autofluor counter
N#CCCN(Cc1ccccc1)C(=O)c1cccs1,-14,1,-22,9,-1,3.4,5393
O=C1CCC(=O)N1Cc1c(Cl)cccc1Cl,-1,-1,-10,12,12,1.7,4899
COc1ccccc1CNC(=O)C1CCN(S(=O)(=O)c2cccc3cccnc23)CC1,-4,3,-18,x,x,0.2,3902
CS(=O)(=O)N(CC(=O)NCc1ccccc1)C1CCCCC1,1,-3,-8,x,x,2.3,4600
CN(C)C(=O)C1C2NC(=S)N(c3cccc(Cl)c3)C1(C)Oc1ccc(Cl)cc12 (centres undefined),-4,5,-16,-3,-3,13,3091
